EPAC1 antagonist – antagonists of human EPAC1; O95398; EPAC1 GEF assay, Rap1b-BODIPY-GDP exchange fluorescence; Potency, µM (titrated, usually from 115 µM), for inactives: at the top dose activity change, negative = inhibition, most hits filed as inhibitors; 360,000 tested, 0.14% active;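 note: potency is the fitted concentration of half-maximal effect; plate controls were vehicle for no effect and positive control for full effect; nearly all actives have a fitted effect of over 50% in size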
HEK293 tox – cytotoxicity in counter-screen for GLP-1R inverse agonists. HEK293 cAMP-luciferase reporter cells, luminescence, 24 h. AID 624418. Potency, µM (series often up to 38.3 µM), for the others: top-dose activity change, negative = inhibition, actives largely listed as inhibitors. 410,000 tested, 0.13% active;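 note: loss of luciferase light is scored as toxicity; potency is the fitted concentration of half-maximal effect; % is set by controls: 0 for no effect and ±100 for the full control effect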
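Seeding density was 200 cells/uL; after overnight-length (12 h) culture, 23 nL compounds went on for 24 h at 37 °C. Readout used a luciferase detection reagent, luminescence taken after 12 min at room temperature.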
GLP1R ag – activates the human GLP-1 receptor; HEK293 GLP-1R CRE-luciferase, luminescence, 4-6 h; cells express a hypersensitive GLP-1R form; P43220; AID 624172; Potency, µM (highest dose often 45.6 µM), without a hit: at the top dose activation, hits mostly activators; 380,000 tested, 0.007% active; note: potency is the fitted concentration of half-maximal effect; % of control where 0% means no effect
IL-2 act – IL-2 activation | AID 652025 | IL-2 activation reporter assay, cell-based qHTS; stimulated with anti-CD3/CD4/CD28 beads; in transgenic mouse T cells | activation, % (series mostly up to about 46 µM) | 360,000 tested, 0.065% active; in the data active = activation above about 50%; inconclusive = mostly about 30% to 49%; note: 0% is about no effect
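First, unstimulated transgenic mouse T cells were exposed to compound for 60 min. Next, anti-CD3/anti-CD4-coated beads with anti-CD28 were added. Finally, after 18 h at 37 degrees C, EGFP and DsRed were imaged.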
EPAC1 agonist – agonists of human EPAC1. 360,000 tested, 0.073% active. O95398. Potency, µM (doses to about 154 µM), without a hit: at the highest dose activation, usual class: activators. AID 720707. EPAC1 agonist qHTS, biochemical assay; response scale: 100% = response to 6.5 mM cAMP; note: potency is the fitted concentration of half-maximal effect; nearly all actives have a fitted effect of over 60% in size
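Read-out is the fluorescence drop as BODIPY-GDP leaves Rap1B (480 nm excitation, 540 nm emission), recorded every 5 minutes over 30 minutes. Reactions held 100 nM EPAC1, 250 nM Rap1B–BODIPY-GDP and 50 uM GDP, with 6.5 mM cAMP setting full activation.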
GLP-1R inv ag – acts as inverse agonist at human GLP-1 receptor; P43220; Potency, µM (doses to about 38.3 µM), for the others: at the highest dose activity change, negative = inhibition, usual class: inhibitors; HEK293 GLP-1R CRE-luciferase, luminescence, 24 h; GLP-1R form is constitutively active; 410,000 tested, 1.6% active; AID 624417; note: potency is the fitted concentration of half-maximal effect; % is set by controls: 0 for no effect and ±100 for the full control effect; nearly all actives have a fitted effect of over 55% in size
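GLP-1R inverse agonism mode: basal reporter luminescence in engineered HEK293 cells measured after one day of compound exposure at 37 deg C, with a 12 min room-temperature detection step.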
PTHR1 ag – PTHR1 (human) receptor agonism. AID 743266. Q03431. Potency, µM (series often up to 115 µM), inactives show at the highest dose activation, usual class: activators. HEK293 GP2 PTHR1 cells, GloSensor cAMP luminescence, 1 h. 410,000 tested, 0.075% active; note: potency is the fitted concentration of half-maximal effect; nearly all actives have a fitted effect of over 55% in size; some results filed as inactive show a strong effect at the top dose; inactives centre near -15; many of its hits are not listed in these tables
Target sequence (Q03431 whole entry, looked up): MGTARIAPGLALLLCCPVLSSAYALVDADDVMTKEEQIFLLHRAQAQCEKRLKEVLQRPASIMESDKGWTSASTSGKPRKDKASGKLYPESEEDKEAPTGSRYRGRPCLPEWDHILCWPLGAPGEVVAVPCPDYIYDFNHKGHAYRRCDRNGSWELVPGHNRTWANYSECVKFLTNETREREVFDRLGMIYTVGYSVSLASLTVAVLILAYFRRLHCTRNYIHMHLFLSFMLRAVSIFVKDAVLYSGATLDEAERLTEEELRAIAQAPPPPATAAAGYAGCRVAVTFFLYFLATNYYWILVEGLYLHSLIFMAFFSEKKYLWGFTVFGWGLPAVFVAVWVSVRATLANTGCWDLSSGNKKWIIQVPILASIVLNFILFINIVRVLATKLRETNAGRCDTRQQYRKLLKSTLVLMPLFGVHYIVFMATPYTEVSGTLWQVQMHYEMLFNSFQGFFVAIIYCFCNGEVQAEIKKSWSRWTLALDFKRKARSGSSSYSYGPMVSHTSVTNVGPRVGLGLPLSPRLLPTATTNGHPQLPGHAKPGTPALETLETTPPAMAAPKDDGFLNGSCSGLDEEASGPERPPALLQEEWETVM
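HEK-293-derived GP2 cells expressing PTHR1 and a GloSensor cAMP reporter, 3,000/well, plated overnight, given luciferin plus IBMX (each 0.5 mM as added) for 1 h at 37 °C, then compound for 1 h at 37 °C. Luminescence was read after 15 min at room temperature.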
PLK1 PBD block – blocks phosphopeptide binding to human PLK1 polo-box domain; Plk1 PBD binding of FITC phosphopeptide, fluorescence polarization; Potency, µM, for the others: max response, negative = inhibition, actives largely listed as inhibitors; 360,000 tested, 2.8% active; note: potency is the fitted concentration of half-maximal effect; series mostly up to about 57 µM; % is set by controls: 0 for no effect and ±100 for the full control effect; nearly all actives have a fitted effect of over 65% in size
Active calls of the source: *; i = inactive; ? = inconclusive; [ ] = remark or other dose. Unless noted, calls come from the whole dose curve; as a rule, active = well fitted curve in the direction sought with a large enough effect; inconclusive = small, poorly fitted or top-dose-only effect, or another doubt; inactive = no such curve, though single readings can be large; an effect the other way counts as inactive or inconclusive. This is a subset; count on the stated rates, not on these rows.

No.	structure	EPAC1 antagonist	HEK293 tox	GLP1R ag	IL-2 act	EPAC1 agonist	GLP-1R inv ag	PTHR1 ag	PLK1 PBD block
1	CCC(C)c1ccccc1NC(=O)COc1ccc(-c2nnco2)cc1 (stereo not drawn)	-6.6%	1.4%	-3.1%	0.3	-8.5%	-5.5%	-10.9%	-1.8%
2	CCN(CC)S(=O)(=O)c1cccc(NC(=O)COC(=O)c2cncc(Br)c2)c1	-10.9%	-9.4%	-4.2%	-1.0	-1.6%	14.7%	-31.7%[inhibitor]	1.7%
3	CC(C)OCCCNC(=O)CCCC(=O)Nc1ccc(OCCc2ccccc2)cc1	-9.5%	-10.2%	-1.2%	0.1	-8.1%	-17.6%	-50.0%[inhibitor]	2.6%
4	S=c1[nH]nc(-c2c[nH]c3ccccc23)o1	-22.1%	1.2%	0.2%	0.1	9.0%	24.5%	i	?
5	O=C(CN1CCCCC1)Nc1nc(-c2ccccc2)cs1	-2.5%	-0.5%	25.8%	0.4	5.4%	?	-2.7%	-1.8%
6	CCCc1cc(=O)[nH]c(SCC(=O)Nc2cc3c(cc2C(C)=O)OCO3)n1	8.1%	0.3%	-11.3%	-0.4	-5.6%	-3.7%	i	-7.0%
7	CCOC(=O)c1cc(C#N)c(N2CCN(C)CC2)nc1-c1ccccc1	0.4%	-3.0%	21.4%	-0.1	-1.5%	?	-0.3%	-9.6%
8	NC(=O)COC(=O)c1c2c(nc3ccccc13)CCC2	5.4%	-12.3%	1.6%	-0.4	12.7%	18.6%	-10.1%	-17.2%
9	CCCN1C(=O)c2[nH]nc(-c3cc(Cl)c(C)cc3O)c2C1c1ccc(O)c(OC)c1 (stereo not drawn)	-21.4%	-18.8%	26.7%	-2.2	0.6%	5.0%	-19.6%	-12.4%
10	CCOC(=O)c1cc(C#N)c(Oc2ccccc2OC)nc1-c1ccccc1	?	7.2%	-13.8%	-0.6	4.5%	?	-11.6%[57.5 µM]	0.0%
11	O=C(c1ccc2nc[nH]c2c1)N1CCN(S(=O)(=O)c2cccc(Cl)c2)CC1	-14.9%	7.7%	2.4%	-6.7	1.7%	-0.6%	-53.0%[inhibitor]	-13.5%
12	Cc1nnc(SCC(=O)NNC(=O)c2ccc(Cl)cc2)s1	-4.9%	9.8%	6.7%	1.3	2.0%	0.3%	-21.1%	-15.1%
13	Cc1ccc(C)c(C(=O)COC(=O)c2cc(S(=O)(=O)N3CCOCC3)ccc2F)c1	6.3%	-7.4%	-2.2%	-2.6	7.4%	-2.2%	-29.9%	-3.3%
14	C=CCn1c(COc2ccc(Cl)cc2)nnc1SCC(=O)Nc1ccc(S(N)(=O)=O)cc1	-10.2%	-2.2%	3.9%	-2.0	-3.7%	-8.0%	-16.9%	3.3%
15	C=CCOc1ccc(C(=O)/C=C2/C(=O)Nc3ccccc32)cc1	-12.0%	-16.0%	9.6%	-3.2	5.3%	?	-21.0%	-8.1%
16	COCCn1c(=NC(=O)CSCC(=O)NC2CCCCC2)sc2cc(OC)ccc21	-9.2%	-2.2%	-1.6%	-0.3	-7.2%	3.5%	-23.3%	-9.1%
17	O=C(Nc1ccc(Cl)cn1)C1CCCN1S(=O)(=O)c1ccccc1 (stereo not drawn)	-13.0%	17.2%	-3.0%	1.5	-13.3%	-23.8%	-24.8%	-15.3%
18	Cc1nn(Cc2ccccc2Cl)c2sc(C(=O)Nc3ccccc3N3CCOCC3)cc12	9.9%	-14.8%	11.2%	-1.0	-3.6%	0.6%	-4.8%	-7.2%
19	COC(=O)c1ccc(C(=O)OC)c(NC(=O)Cc2cccs2)c1	?	5.8%	-1.3%	-2.4	-4.6%	15.6%	i	?
20	O=C(COc1ccc(-c2nnco2)cc1)Nc1ccc(F)c(Cl)c1	-9.1%	-8.1%	17.0%	-0.1	1.7%	?	i	-9.1%

Given with values under each structure: 14 of the compounds above
Each structure is followed by: EPAC1 antagonist, HEK293 tox, GLP1R ag, IL-2 act, EPAC1 agonist, GLP-1R inv ag, PTHR1 ag, PLK1 PBD block
#1 CCC(C)c1ccccc1NC(=O)COc1ccc(-c2nnco2)cc1 (stereo not drawn)
→ -6.6%, 1.4%, -3.1%, 0.3, -8.5%, -5.5%, -10.9%, -1.8%
#2 CCN(CC)S(=O)(=O)c1cccc(NC(=O)COC(=O)c2cncc(Br)c2)c1
→ -10.9%, -9.4%, -4.2%, -1.0, -1.6%, 14.7%, -31.7%[inhibitor], 1.7%
#3 CC(C)OCCCNC(=O)CCCC(=O)Nc1ccc(OCCc2ccccc2)cc1
→ -9.5%, -10.2%, -1.2%, 0.1, -8.1%, -17.6%, -50.0%[inhibitor], 2.6%
#4 S=c1[nH]nc(-c2c[nH]c3ccccc23)o1
→ -22.1%, 1.2%, 0.2%, 0.1, 9.0%, 24.5%, i, ?
#5 O=C(CN1CCCCC1)Nc1nc(-c2ccccc2)cs1
→ -2.5%, -0.5%, 25.8%, 0.4, 5.4%, ?, -2.7%, -1.8%
#6 CCCc1cc(=O)[nH]c(SCC(=O)Nc2cc3c(cc2C(C)=O)OCO3)n1
→ 8.1%, 0.3%, -11.3%, -0.4, -5.6%, -3.7%, i, -7.0%
#7 CCOC(=O)c1cc(C#N)c(N2CCN(C)CC2)nc1-c1ccccc1
→ 0.4%, -3.0%, 21.4%, -0.1, -1.5%, ?, -0.3%, -9.6%
#8 NC(=O)COC(=O)c1c2c(nc3ccccc13)CCC2
→ 5.4%, -12.3%, 1.6%, -0.4, 12.7%, 18.6%, -10.1%, -17.2%
#9 CCCN1C(=O)c2[nH]nc(-c3cc(Cl)c(C)cc3O)c2C1c1ccc(O)c(OC)c1 (stereo not drawn)
→ -21.4%, -18.8%, 26.7%, -2.2, 0.6%, 5.0%, -19.6%, -12.4%
#10 CCOC(=O)c1cc(C#N)c(Oc2ccccc2OC)nc1-c1ccccc1
→ ?, 7.2%, -13.8%, -0.6, 4.5%, ?, -11.6%[57.5 µM], 0.0%
#11 O=C(c1ccc2nc[nH]c2c1)N1CCN(S(=O)(=O)c2cccc(Cl)c2)CC1
→ -14.9%, 7.7%, 2.4%, -6.7, 1.7%, -0.6%, -53.0%[inhibitor], -13.5%
#12 Cc1nnc(SCC(=O)NNC(=O)c2ccc(Cl)cc2)s1
→ -4.9%, 9.8%, 6.7%, 1.3, 2.0%, 0.3%, -21.1%, -15.1%
#13 Cc1ccc(C)c(C(=O)COC(=O)c2cc(S(=O)(=O)N3CCOCC3)ccc2F)c1
→ 6.3%, -7.4%, -2.2%, -2.6, 7.4%, -2.2%, -29.9%, -3.3%
#14 C=CCn1c(COc2ccc(Cl)cc2)nnc1SCC(=O)Nc1ccc(S(N)(=O)=O)cc1
→ -10.2%, -2.2%, 3.9%, -2.0, -3.7%, -8.0%, -16.9%, 3.3%

More structures.
No.	structure	EPAC1 antagonist	HEK293 tox	GLP1R ag	IL-2 act	EPAC1 agonist	GLP-1R inv ag	PTHR1 ag	PLK1 PBD block
21	COc1ccc(-c2ccc3oc(-c4ccsc4)cc(=O)c3c2)cn1	-13.7%	1.3%	6.7%	-0.6	-12.1%	10.4%	-0.8%	-22.1%
22	COc1cc(CNC(=O)c2cc(-c3ccc(F)cc3C)n[nH]2)cc(OC)c1	-14.3%	0.6%	-0.3%	-0.5	-5.7%	?	-29.0%	-2.7%
23	COCCn1c(=O)[nH]c2cc(C(=O)N3CCN(c4cccc(C(F)(F)F)c4)CC3)ccc2c1=O	1.4%	0.1%	8.3%	3.3	-0.4%	-23.6%	-21.5%	-6.8%
24	O=C(NCCc1ccccc1)c1nc2nc(-c3cccs3)cc(C(F)(F)F)n2n1	1.8%	86.0%[activator]	2.0%	-1.9	6.1%	-24.8%	-95.9%[inhibitor]	-23.6%
25	CCOC(=O)c1cc(C#N)c(N2CCOCC2)nc1-c1ccccc1	11.3%	10.7%	25.9%	-0.7	12.2%	?	i	-21.2%
26	CCOCCn1c(=NC(=O)CSCC(=O)N2CCOCC2)sc2cc(OC)ccc21	1.6%	?	4.2%	-0.4	5.6%	17.0%	i	0.7%
27	Cc1ccc(N2CC(C(=O)Nc3nc4ccc(S(C)(=O)=O)cc4s3)CC2=O)cc1 (stereo not drawn)	-17.0%	-6.6%	1.7%	-2.2	-7.9%	22.3%	i	-21.2%
28	COc1cc(C(=O)OCC(=O)N2c3ccccc3NC(=O)C2(C)C)ccc1OCC(C)C	-12.9%	-17.2%	-38.5%[inhibitor]	-5.2	11.8%	?	-73.0%[inhibitor]	-14.1%

Compound activity: PubChem BioAssay, National Center for Advancing Translational Sciences (NCATS)
